# Screening data: PubChem BioAssay, National Center for Advancing Translational Sciences (NCATS)
# NPR1 antag – human Npr1 receptor antagonism; AID 1347048; HEK293 hNpr1 GloSensor cGMP, ANP-stimulated luminescence; Potency, µM (titrated, usually from 46.3 µM), inactives show top-dose activity change, negative = inhibition, hits mostly inhibitors; P16066; hit rate 1.6% among 76,000; active = well fitted inhibition curve with a large enough effect; inconclusive = small, poorly fitted or top-dose-only effect; inactive = no such curve, though single readings can be large or run the other way;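 note: nearly all actives have a fitted effect of over 60% in size; nearly all hits also lower the signal before the agonist is added; a reference antagonist and vehicle were the controls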
# Target sequence (P16066 whole entry, looked up): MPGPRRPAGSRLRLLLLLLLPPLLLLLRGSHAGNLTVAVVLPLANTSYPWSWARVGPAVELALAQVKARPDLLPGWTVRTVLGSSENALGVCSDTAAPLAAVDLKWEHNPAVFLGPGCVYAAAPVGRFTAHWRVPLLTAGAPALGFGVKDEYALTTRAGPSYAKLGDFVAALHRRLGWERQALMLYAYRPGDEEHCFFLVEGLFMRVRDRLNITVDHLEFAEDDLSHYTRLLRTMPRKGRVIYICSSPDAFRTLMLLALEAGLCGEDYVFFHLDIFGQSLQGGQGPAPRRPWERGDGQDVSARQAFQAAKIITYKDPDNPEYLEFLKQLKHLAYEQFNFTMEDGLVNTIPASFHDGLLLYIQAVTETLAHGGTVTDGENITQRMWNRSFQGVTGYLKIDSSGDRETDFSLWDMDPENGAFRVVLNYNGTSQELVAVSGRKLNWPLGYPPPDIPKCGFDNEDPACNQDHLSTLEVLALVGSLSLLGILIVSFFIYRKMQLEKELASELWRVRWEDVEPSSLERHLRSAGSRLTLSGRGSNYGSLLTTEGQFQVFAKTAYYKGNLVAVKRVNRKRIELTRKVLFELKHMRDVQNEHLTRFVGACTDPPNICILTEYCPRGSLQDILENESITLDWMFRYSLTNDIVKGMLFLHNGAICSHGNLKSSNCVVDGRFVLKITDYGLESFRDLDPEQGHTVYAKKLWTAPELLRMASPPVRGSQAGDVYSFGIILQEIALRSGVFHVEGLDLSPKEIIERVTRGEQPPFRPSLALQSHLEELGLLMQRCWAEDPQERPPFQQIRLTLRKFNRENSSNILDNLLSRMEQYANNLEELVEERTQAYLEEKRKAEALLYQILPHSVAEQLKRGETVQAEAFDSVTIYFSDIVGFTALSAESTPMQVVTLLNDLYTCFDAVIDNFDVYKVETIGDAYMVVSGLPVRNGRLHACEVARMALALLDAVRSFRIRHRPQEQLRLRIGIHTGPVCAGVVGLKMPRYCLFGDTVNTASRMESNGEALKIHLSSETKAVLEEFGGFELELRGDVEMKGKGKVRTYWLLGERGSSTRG
#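 Compound pre-incubated 30 min at room temperature on GloSensor-loaded HEK293 cells stably carrying hNpr1 and the pGS-40F cGMP biosensor. Stimulation uses hNppA at 0.1 nM final; luminescence is taken at baseline and 20 min post-agonist.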
# Starred values were filed as active, the others as inactive; ? = inconclusive; & = joins results of further samples; [ ] = dose if it differs, or a comment. % is set by controls: 0 for no effect and ±100 for the full control effect; potency is the fitted concentration of half-maximal effect. A portion of the library. The share of hits here may be higher or lower than overall.
mol	NPR1 antag
Cc1cc(C)cc(C(=O)N2CCC(CC(=O)NCc3ccccc3)C2)c1 (configuration not stated)	10.4%
O=C(NCc1ccc(F)cc1F)C1CCN(C(=O)c2ncn3c2COC(c2ccccc2)C3)CC1 (configuration not stated)	-10.0%
NCCc1noc(-c2ccccc2)n1	3.6%
CC1CN(c2ccccc2C#N)C(=O)CN1C(=O)Cc1cn2ccsc2n1 (configuration not stated)	0.7%
CCc1nncn1C1CCN(S(=O)(=O)c2cc(OC)ccc2OC)CC1	-8.0%
COCc1nncn1C1CCN(S(=O)(=O)c2ccc(Br)cc2)CC1	-1.1%
O=C(NCc1cnccn1)C1CCCN(c2cnn(Cc3ccccc3)c(=O)c2)C1 (configuration not stated)	-0.1%
N#Cc1ccc(S(=O)(=O)N2CCC(C3CCNC3)CC2)cc1 (configuration not stated)	-0.2%
COc1ccc(-c2noc([C@@H]3CCCN3C(=O)c3ccc(Cl)cc3)n2)cc1OC	-0.5%
CC(C)Cc1ccc(S(=O)(=O)N(C)CC2CCOCC2)cc1	10µM*
COc1ccc(C2Cn3nnc(-c4nc(-c5ccc(OC)c(F)c5)no4)c3CO2)cc1 (configuration not stated)	0.1%
Cc1ccc(C2c3cc(OCc4nc(C(=O)NCC(C)C)co4)ccc3CCN2C(=O)C2CC2)cc1 (configuration not stated)	-1.1%
CC(C)Oc1ccc(CN2CCC3(CCNCC3)C2)cc1	-12.1%
Cc1nc(-c2c3n(c(=O)n(CC(=O)Nc4cccc(Cl)c4C)c2=O)CCCCC3)no1	-4.3%
O=C1COc2ccc(-c3cccnc3)nc2CN1Cc1ccc(C(F)(F)F)cc1	-17.3%[70.6 µM]
COc1cccc(-c2cc3c(=O)n(CCNC(=O)c4ccccc4OC)ccn3n2)c1	-13.4%
CNC(=O)N1CCC2(CC1)CC(N1CCN(CC(C)C)CC1)CCO2 (configuration not stated)	-1.6%
COc1ccc(CNC(=O)c2ccc3c(c2)N(C(=O)c2ccc(F)cc2)CC3)cc1OC	2.24µM*
CCOc1ccccc1CN1CCC2(CCN([S+](=O)([O-])c3c(C)noc3C)CC2)Oc2ccccc21	-1.2%
Cn1c(Cn2ccnc2)nnc1C1CCCN(C(=O)CCc2ccncc2)C1 (configuration not stated)	3.1%

# As a short view, some entries already given.
mol	NPR1 antag
O=C(NCc1cnccn1)C1CCCN(c2cnn(Cc3ccccc3)c(=O)c2)C1 (configuration not stated)	-0.1%
N#Cc1ccc(S(=O)(=O)N2CCC(C3CCNC3)CC2)cc1 (configuration not stated)	-0.2%

# The list goes on.
mol	NPR1 antag
Cc1noc(C)c1S(=O)(=O)NCCc1ncc(C)n1C1CCC1	-9.8%
Cc1ccc(-c2cc3c(=O)n(CC(O)c4ccc(C)c(C)c4)ccn3n2)c(C)c1 (configuration not stated)	?
COCCC(=O)N1CCC(n2c(C)cnc2-c2ccncc2)CC1	0.9%
C[C@H]1[C@@H]2[C@@H](O)C([C@H](C)C(=O)NC3CCCCC3)CC[C@@]2(C)CC[C@@H]1NC(=O)c1ccccn1 (some centres not stated)	-10.6%
CCC(NC(=O)c1cc(Cn2ccc3ccccc32)[nH]n1)c1ncccc1C (configuration not stated)	-1.5%
CCC(C)NC(=O)c1cc(-c2ccc(F)cc2)cn1C (configuration not stated)	-7.8%
CCCCc1cc(C[C@@H]2C[C@H](NC(=O)c3cccc(F)c3)C2(C)C)no1	?
COc1nc2c(cc1CNC(=O)C1(C)CC1)C(=O)N(CCc1ccccn1)C2	4.5%
Cc1ccc(Cl)cc1NC(=O)N1C[C@@H](F)C[C@H]1C(=O)N1CCc2ccccc2C1	-0.7%
CCn1cc(S(=O)(=O)N2CCC(OCCOC)CC2)cn1	9.5%
CC(=O)NC1CCCc2c1[nH]c1c(Cl)cccc21 (configuration not stated)	-3.2%
CC(=O)N1CCC(CC(=O)NCC(=O)N2CCCCCCNC(=O)CC2c2ccccc2)CC1 (configuration not stated)	2.2%
COC(=O)CNC(=O)C1CN(S(=O)(=O)c2cccnc2)CC12CCCCC2 (configuration not stated)	1.1%
CCN1c2cc(C(=O)Nc3ccc(C)cc3)ccc2C(=O)N2CCCCCC21 (configuration not stated)	-23.5%
CCOc1ccccc1NC(=O)N1c2ccccc2CC1c1nc(C(C)C)no1 (configuration not stated)	-1.9%
Cc1ccccc1-c1[nH]nc2ncc(-c3ccccc3F)nc12	-25.8%[70.6 µM]
Cc1ccc(C(=O)Nc2cccc(-c3nnc4n3CCCC4)c2)c(C)c1	1.5%
Clc1cccc(-c2ccc(CNc3ncncn3)o2)c1	?
O=C(c1ccc(=O)[nH]c1)N1CCC(C(=O)N2CCc3c(nc4cc(-c5ccccc5)[nH]n4c3=O)C2)CC1	8.7%
O=C1CO[C@H]2CN(c3ncccn3)C[C@H]2N1Cc1ccncc1	0.0%[70.6 µM]

# Grouped by structure, the compounds so far containing a cyano group
mol	NPR1 antag
CC1CN(c2ccccc2C#N)C(=O)CN1C(=O)Cc1cn2ccsc2n1 (configuration not stated)	0.7%
N#Cc1ccc(S(=O)(=O)N2CCC(C3CCNC3)CC2)cc1 (configuration not stated)	-0.2%

# Next compounds:
mol	NPR1 antag
COCCNC(=O)[C@H]1C[C@H](Oc2cccnc2)CN1C(=O)Cc1cccc(C)c1	-3.1%
CC(=O)Nc1cc(-c2cn(C)c(=O)n3cc(CN4CC[S+](=O)([O-])CC4)nc23)ccn1	1.1%[70.6 µM]
COc1ccc(N2CC(C(=O)N3CCC(C(=O)N4CCOCC4)C3)NC2=O)cc1 (configuration not stated)	-2.6%
COC[C@@H]1CN(S(=O)(=O)c2ccccc2C)C[C@H]1c1nc(C)no1	-0.2%
CC(C)CS(=O)(=O)Nc1ccc([C@H]2OCC(=O)N(C)[C@@H]2CO)cc1	0.9%[70.6 µM]
O=C(c1cccc(Cn2cccn2)c1)N1CC[C@H](CO)[C@H](O)C1	-6.4%
CN(CC1CCOC1)S(=O)(=O)c1ccc2c(c1)CCCC2 (configuration not stated)	-5.7%
O=C(Nc1ccc(Cl)cc1)N1CCC(N2CC3CCCN3C2=O)CC1 (configuration not stated)	?
O=C1Nc2ccccc2O[C@H]2C[C@@H]1N(Cc1ccc(C(F)(F)F)cc1)C2	?
Cn1cnc(C(=O)N2CCC3(CC2)CC(N(Cc2ccc(F)cc2)C2CC2)CCO3)c1 (configuration not stated)	13.6%
O=C(Cn1ccn2nc(-c3ccccc3)c(CO)c2c1=O)N1CCC(Cc2ccccc2)CC1	0.1%
CC(C)n1cnnc1CC1CCCN(S(=O)(=O)c2ccc(F)cc2)C1 (configuration not stated)	-1.2%
Cc1oc2ccn(Cc3ccc(F)cc3)c(=O)c2c1C(=O)NC1CC1	?
O=C(O)c1ccc(-c2nnc3ccc(NC(=O)C4CCC4)cn23)cc1	1.8%
CO[C@H]1C(=O)N(C2CCN(C(=O)c3cc(C)nn3C)CC2)[C@H]1c1ccncc1	1.8%
CN(C(=O)c1ccc(Cl)nc1)C1CCCc2ccccc21 (configuration not stated)	0.0%[70.6 µM]
COc1cccc(C(=O)N2C3CCCC2CC(=O)C3)c1	6.8%[70.6 µM]
O=C(NCCN1Cc2ccccc2OC(c2ccccc2F)C1)c1ccncc1 (configuration not stated)	1.1%
O=C1CCN(Cc2ccc(C(F)(F)F)cc2)CCCOCCN1	7.3%
NC(=O)[C@@H]1C[C@H](Oc2cccnc2)CN1C(=O)CN1CCCCCC1	2.9%
O=C1NCCCCCCN(Cc2ccncc2)[C@@H]2CN(Cc3cccnc3)CC[C@H]12	1.7%
O=C1NCCCCCN(Cc2cccnc2)[C@@H]2CN(Cc3cccc(F)c3)CC[C@@H]12	1.3%
CC[C@H]1CN(S(=O)(=O)c2ccccc2)CC[C@H]1CC(=O)NCCOC	0.2%[70.6 µM]
CN(Cc1ccc(OC(F)(F)F)cc1)Cc1cccn1C	25.8%[70.6 µM]
OC[C@@H]1CNC[C@H]1C1CCN(Cc2ccc(Br)cc2F)CC1	-7.6%
COC1C(=O)N(C2CCN(S(=O)(=O)c3cccs3)CC2)C12CCOCC2 (configuration not stated)	-3.1%
CC(C)(C)c1ccc(C(=O)N2CCOCC(O)(CN3CCCC3)C2)cc1 (configuration not stated)	2.1%
CN1C[C@H](NCc2cccc(Cl)c2)CCC[C@@H](C(=O)NC2CC2)CC1=O	3.6%[70.6 µM]
C[S+](=O)([O-])CCn1ncc2cc(OCc3cccc(-c4cccc(F)c4)c3)ccc21	39.8µM*
O=C(Cc1ccccc1)Nc1ccc([C@@H](O)[C@H]2COCC(=O)N2Cc2ccc(C(F)(F)F)cc2)cc1	0.0%
CN(C)C(=O)c1cc(-c2ccccc2F)cc2c1OCCN2Cc1cccnc1	-24.7%[70.6 µM]
CC(=O)N1C[C@@H]2CCCN3CCC[C@@H]([C@H]23)[C@H]1CCCC(=O)NCCN(C)C	8.1%
O=C(Nc1cccc(C(F)(F)F)c1)N[C@H]1CO[C@H]2[C@@H]1OC[C@@H]2Nc1nccc(C2CCCC2)n1	-6.2%
COc1ccc(C(=O)N2CCCC(n3cc(-c4nc(-c5ccccc5)no4)nn3)C2)cc1F (configuration not stated)	?
Cc1ccc(C2(c3noc(CN(C)Cc4ccc(C)o4)n3)CCCC2)cc1	-1.0%
COCCn1ncc(N2CCC(NC(=O)c3ccc4c(c3)OCO4)CC2)cc1=O	-0.6%
COc1c(C)cccc1C(=O)N1CCOC(c2ccc(Cl)c(Cl)c2)C1 (configuration not stated)	10µM*
CCOC(=O)C1=CN(CC(=O)Nc2ccc(OC)cc2)S(=O)(=O)N=C1C	-1.0%
CCOC(=O)C1=CN(CC(=O)Nc2ccccc2C(F)(F)F)S(=O)(=O)N=C1C	0.1%
Cc1nncn1C1CCN(S(=O)(=O)c2ccc(F)c(F)c2)CC1	5.3%
COCc1noc([C@@H]2CN(C(=O)C3(C)CCCCC3)C[C@H]2CO)n1	3.5%
CN1C(=O)CCCCC1C(=O)NC1CCCC1 (configuration not stated)	3.8%
Cc1ccn(CCC(=O)N2C[C@@H](C(=O)O)[C@H](c3ccccc3C)C2)n1	-1.1%
CCCCC1CN(c2cccc(-c3ccccc3)c2)C(=O)CN1C(=O)c1ncoc1C (configuration not stated)	-12.0%
COc1ccccc1CN1CCC(O)(c2csc(CN3CCN(c4ccccn4)CC3)n2)CC1	-0.5%
O=c1n(-c2ccc([N+](=O)[O-])cc2)nc2n1CCN(CC1CC1)C2	?
Cc1ccc(CC2CCOC3(CCN(C(=O)c4cccs4)CC3)C2)cc1 (configuration not stated)	?
CNC(=O)CN(C)C(=O)[C@@H]1CN(c2ncccn2)C[C@H]1COC	-0.7%
CCCNC(=O)C(NC(=O)CC(C)C)C1CCN(C(=O)c2ccc(Cl)cc2)CC1 (configuration not stated)	-2.3%
COc1ccc(C(C)NC(=O)c2cc3c(N4CCSCC4)nc(C)cn3n2)cc1OC (configuration not stated)	-1.6%
O=C(c1ccccc1)N1CCC2(CC1)CC(c1cccnc1)=NO2	1.3%&9.7%[70.6 µM]
O=C(C1CCCC1)N1CCC(C2CCN(Cc3cccc(F)c3F)CC2)C1 (configuration not stated)	-0.9%
Cc1noc(-c2cccn3c(CNC(=O)c4ccoc4)nnc23)n1	5.7%
O=C(c1ccccc1F)N1CCCCCC1c1nnc(-c2ccccc2)o1 (configuration not stated)	0.9%
Cc1ccc(NC(=O)Nc2cccn3nc(C)nc23)cc1	-8.1%
Cc1noc(C)c1-c1cc2cc(CN(C)C)oc2c(Nc2ccncn2)n1	-2.7%[70.6 µM]
O=C(c1ccoc1)N1CCCC(Cc2nc(C3CCOCC3)no2)C1 (configuration not stated)	5.2%
O=C([C@H]1C[C@@H](F)CN1S(=O)(=O)Cc1ccc(Cl)cc1)N1CCOCC1	1.4%
COCc1ccc2c(c1)c(OC(C)(C)C(=O)NC(C)C)nn2Cc1cccc(OC)c1	1.3%[70.6 µM]
O=C1NC2(CCN(C(=O)c3ccc4c(c3)OCO4)C2)Oc2ccccc21 (configuration not stated)	16.4%

# Carrying on.
mol	NPR1 antag
O=C(Nc1ccc2c(c1)OCCO2)N1CCC(Cc2nc(C3CC3)n[nH]2)C1 (configuration not stated)	-0.2%
Cc1noc([C@H]2CCN(C(=O)Cc3c[nH]c4ccccc34)C[C@H]2NC(=O)C2CC2)n1	-0.6%
COc1ccccc1CN1CC[C@H]2COC(=O)N2c2cc(C)ccc2C1	-0.3%[70.6 µM]
O=C1COc2ccc(-c3cccc(OC(F)(F)F)c3)nc2CN1	-22.1%[70.6 µM]
CC(C)(C)c1nnc([C@H]2CCN(C(=O)C3CC3)C2)o1	3.3%[70.6 µM]
O=C(CCC[C@H]1NC[C@@H]2C[C@H]1CN(Cc1ccccc1)C2)Nc1ccc(N2CCOCC2)cc1	-4.1%
CC(C)(C)CCN1CCCC(COc2ccccc2C(=O)N2CCOCC2)C1 (configuration not stated)	-4.5%
O=C(O)C[C@@H]1CCN(C(=O)Cc2cccs2)C[C@@H]1CCN1CCN(c2ccc(F)cc2)CC1	1.4%
CCc1noc(-c2cn(C3CCN(C(=O)c4cccc(C(F)(F)F)c4)C3)nn2)n1 (configuration not stated)	-14.8%
CN(CC1CCCN(CCc2ccc(Cl)cc2)C1)C(=O)c1ccc(-n2cnnn2)cc1 (configuration not stated)	-1.5%
O=C(c1cccc(F)c1)N1CCCC2(C1)NC(=O)N(Cc1ccc(Cl)cc1)C2=O (configuration not stated)	-16.7%
